Bioassay records: PubChem, several laboratories
CBX7 AlphaScr – CBX7 inhibition, primary AlphaScreen. O95931. AlphaScreen His6-CBX7 / biotin-H3K27me3 peptide binding; hits give low values. normalised signal (fraction of DMSO) (concentration not given with the values). 1.1% of 66,000 active. AID 1224903; in the data active = normalised signal below about 0.5;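 also: 100 nL library stock added to about 20 µL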
Target sequence (O95931 whole entry, looked up): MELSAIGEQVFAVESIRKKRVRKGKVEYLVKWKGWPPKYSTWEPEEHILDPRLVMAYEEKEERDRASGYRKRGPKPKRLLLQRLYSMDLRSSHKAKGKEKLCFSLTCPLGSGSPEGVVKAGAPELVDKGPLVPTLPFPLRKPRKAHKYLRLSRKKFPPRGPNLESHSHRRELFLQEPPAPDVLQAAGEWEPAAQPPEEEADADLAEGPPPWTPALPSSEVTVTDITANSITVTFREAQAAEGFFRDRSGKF
CBX7 AlphaScr z-score – recorded beside CBX7 AlphaScr, whose call it bears; z-score; measured here: z-score of CBX7 signal; some inactives read as strong as hits; reference of the scale not given here;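 same signal on another scale; lower means less binding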
Numbers without * were called inactive. An excerpt; rates above refer to the full screens.

SMILES	CBX7 AlphaScr	CBX7 AlphaScr z-score
Cc1cc(N2CCC(C)CC2)nc2ccc(NC(=O)c3cccc(F)c3)cc12	0.8	-3.4
COc1ccc(-c2noc(CCC(=O)NCCCN3CCC(Cc4ccccc4)CC3)n2)cc1	1.5	5.3
Cc1cc(=O)n2nc(N3CCCC(C(=O)N4CCOCC4)C3)sc2n1 (centres undefined)	1.2	1.7
CCOC(=O)c1c(C)n(-c2ccc(C)cc2)c2ccc(OCC(O)CNCc3ccccc3)cc12 (centres undefined)	0.83	-3.5
O=C(COCc1cc(-c2ccc(F)cc2)on1)Nc1ccc(OC(F)(F)F)cc1	1.1	1.4
O=c1cc(N2CCC3(CC2)OCCO3)[nH]c(=O)n1Cc1ccc(F)cc1	0.98	-0.31
CCC(Sc1nc(NC2CCCCC2)c2ccccc2n1)C(=O)Nc1ccc2c(c1)OCO2 (centres undefined)	0.86	-0.4
O=C(Cn1ccc2ccccc2c1=O)NCCC(=O)Nc1ccc(Oc2ccccc2)cc1	1	1
O=C1CN(C(=O)C2CCCC2)C(c2ccc(F)cc2)c2cc(Br)ccc2N1 (centres undefined)	0.94	-1.3
CC(CCc1ccccc1)NC(=O)c1ccc(Cn2c(=O)[nH]c3ccccc3c2=O)cc1 (centres undefined)	0.99	-0.032
CCOc1ccc(N2C(=O)c3ccccc3C2Nc2ccc(F)c(Cl)c2)cc1 (centres undefined)	1	-0.15
O=C(Nc1cccc(C(F)(F)F)c1)c1cc(-c2ccc(O)cc2)on1	1	0.19

Complete entries, looked up by structure. Order of values: CBX7 AlphaScr, CBX7 AlphaScr z-score
`O=C1CN(C(=O)C2CCCC2)C(c2ccc(F)cc2)c2cc(Br)ccc2N1` (centres undefined) in the list: 0.94, -1.3
`COc1ccc(-c2noc(CCC(=O)NCCCN3CCC(Cc4ccccc4)CC3)n2)cc1` in the list: 1.5, 5.3
`CCC(Sc1nc(NC2CCCCC2)c2ccccc2n1)C(=O)Nc1ccc2c(c1)OCO2` (centres undefined) in the list: 0.86, -0.4
`CCOc1ccc(N2C(=O)c3ccccc3C2Nc2ccc(F)c(Cl)c2)cc1` (centres undefined) in the list: 1, -0.15
`O=C(Cn1ccc2ccccc2c1=O)NCCC(=O)Nc1ccc(Oc2ccccc2)cc1` in the list: 1, 1

The list goes on.
SMILES	CBX7 AlphaScr	CBX7 AlphaScr z-score
C=CCNC(=O)c1cc(-c2ccncc2)nc2ccccc12	1.1	1.3
CCn1cc(C(=O)Nc2cc(C)c(Cl)cc2OC)c(=O)c2ccc(C)nc21	1	0.17
CCCCCCCNC(=O)CN1N=C(c2ccc(Cl)cc2)CCC1=O	0.91	-1.4
Cc1nc(NC(=O)c2c(-c3ccccc3)noc2C)sc1C(=O)N(C)C	1	0.21
COc1ccc(N2CCN(c3cc(=O)n(-c4ccc(Cl)cc4)c(=O)[nH]3)CC2)cc1	1	0.14
Clc1ccc(/C=C/c2nc3ccccc3n2CCCOc2ccccc2)cc1	2	52
COc1ccc(-c2cc(C(F)(F)F)nc(NCCc3ccccc3)n2)cc1	1.4	18
Cc1ccc(-c2nc3ncccn3c2Nc2ccccc2)cc1	1	0.8
Cc1ccc(NC(=O)Cn2cnc3sc(C(=O)NCCN(C)C)c(C)c3c2=O)cc1Cl	1	0.36
CN(CC(=O)NC1CCCCC1)S(=O)(=O)c1cccc2cccnc12	0.84	-1.9
COC(=O)c1ccc(C(=O)Nc2nc(-c3ccncc3)cs2)cc1	0.99	-0.16
CCOC(=O)c1cnc2ccccc2c1NCCc1ccccc1	1.1	2.7
COc1ccc(-c2cc(C(=O)NCc3ccc(Cl)cc3)no2)cc1OC	0.88	-1.4
Cc1ccc(NC(=O)c2ccc3c(=O)n4c(nc3c2)CCCCC4)c(Br)c1	1	0.8
COc1ccc(-c2noc(CCC(=O)N(C)c3ccc(Cl)cc3)n2)cc1	0.95	-0.047
Cc1cccc(OCC(O)Cn2c(=N)n(CCN3CCCCC3)c3ccccc32)c1 (centres undefined)	0.83	-2.4
CSCC[C@@H](C(=O)Nc1cccc(F)c1)N1Cc2ccccc2C1=O	0.49*	-1.4*
CCOc1ccc2nc(N3CCC(C(=O)NCc4ccc(F)cc4)CC3)sc2c1	1.1	0.28
CC1=Nc2cc(C(=O)NCCC(C)C)ccc2Sc2c(C)ccc(C)c21	1	0.24
COc1ccc(OC)c(NC(=O)CCc2c(C)nc3cc(-c4ccc(OC)cc4OC)nn3c2C)c1	0.95	-0.68
Nc1nonc1C(=O)NCCNS(=O)(=O)c1ccccc1	0.96	-0.89
Cc1ccc(Nc2cc(C(=O)NCCN3CCCCCC3)c3ccccc3n2)c(C)c1	1	1.1
CCN1CCN(c2ccc(-n3c(C)nc4c(cnn4-c4ccc(C)cc4)c3=O)cc2)CC1	1.1	1.7
Cn1nc(-c2ccc(Cl)cc2)c2cc(C(=O)NCCC3=CCCCC3)sc21	1.1	2.4
CCOc1ccc(-n2c(Cc3cc(=O)[nH]c(=O)[nH]3)nnc2SCc2cccc(C)c2)cc1	0.95	-1.4
Cc1c(C)n(CC(O)CNc2ccc(Br)cc2)c2ccccc12 (centres undefined)	0.59	-4.4
Cc1cccc(CC2C(=O)N(c3ccc(C)c(Br)c3)C(=O)C2C)c1 (centres undefined)	1	1.4
CC(CNC(=O)CN1C(=O)COc2ccc(S(=O)(=O)N3CCOCC3)cc21)c1ccccc1 (centres undefined)	1	1
CCOc1cc2c(cc1OCC)C(c1ccc(OC)c(OC)c1Cl)NCC2 (centres undefined)	1.2	1.9
COCCNC(=O)c1cc(-c2ccc(Cl)cc2)on1	1	-0.032
Cc1nc2cc(-c3cccc(F)c3)nn2c(C)c1CCC(=O)Nc1ccc(F)cc1	0.99	-0.12
COc1ccccc1NC(=O)c1ccc2c(c1)C(=O)N(c1ccccc1C)C2=O	0.98	-0.7
CC1CCC(NC(=O)C2c3cccn3CC(=O)N2Cc2ccc3c(c2)OCO3)CC1 (centres undefined)	1	0.31
CCc1c(-c2ccccc2)nc2ccccc2c1C(=O)NCCc1ccc(OC)c(OC)c1	0.97	-0.43
COc1ccc(-c2nnc(NC(=O)c3cccc(Cl)c3)s2)cc1	1	1.2
NS(=O)(=O)c1ccc(NC(=O)c2cc3c(n(-c4ccccc4)c2=O)CCCC3=O)cc1	0.92	-0.33
CCOC(=O)c1cnc2ccc(OCC)cc2c1Nc1cc(Cl)ccc1OC	1	0.32
O=C(Cn1c(=O)n(-c2ccccc2)c(=O)c2sccc21)NCCc1ccccc1	1	0.95
COc1ccc(C2CC(c3ccccc3C)n3nnnc3N2)cc1 (centres undefined)	1.1	2.1
CCOC(=O)c1[nH]cnc1C(=O)Nc1ccccn1	0.19*	-15*
Cc1cc(C)cc(Oc2coc3c(CN4CCN(C)CC4)c(O)ccc3c2=O)c1	1.1	0.55
O=C(Nc1ccc2c(c1)OCCO2)C(c1ccccc1)N1CCCC1 (centres undefined)	0.92	-1.8
O=C(c1ccccc1Cl)N1CCN(c2ccc3nncn3n2)CC1	1	0.28
CCN1CCN(c2cc(=O)n(-c3ccc(OC)cc3)c(=O)[nH]2)CC1	1	0.17
CCOc1ccc(-n2cc(-c3ccccc3)c3c(NCc4ccc5c(c4)OCO5)ncnc32)cc1	0.96	-0.97
CN(C)CCNC(=O)C1c2ccccc2C(=O)N2CCc3ccccc3C12 (centres undefined)	1	0.58
CCOC(=O)c1ccc(NC(=O)CSc2nc3ccccc3[nH]2)cc1	1.1	0.73
CC(C)(C)c1ccc(Oc2ccc3nnc(-c4ccc(Br)cc4)n3n2)cc1	0.97	-1.2
O=S1(=O)NC(=NCC(O)COc2ccccc2)c2ccccc21 (centres undefined)	1	0.082
Cc1ccccc1-c1nc(CN2CCC(C(=O)NC3CC3)CC2)c(C)o1	0.87	-0.18
O=C(NC1CCCCCC1)C1CCN(C(=O)c2cnn(-c3ccccc3)c2-n2cccc2)CC1	0.93	-0.16
CCCCN(CC)CCNS(=O)(=O)c1cc(Br)cc2c1N(C(C)=O)CC2	0.93	-1.5
CCC(=O)N1c2ccccc2NC2=C(C(=O)CCC2)C1c1ccc(N(C)C)cc1 (centres undefined)	1.1	1.2
CCOc1ccc(CC(=O)Nc2sc3c(c2C(=O)OC)CCCCC3)cc1OCC	1.2	1.9
COc1ccccc1OCCn1c(SCCOc2ccccc2)nc2ccccc21	1	0.47
CN(C)CCNc1nc(-c2ccc(Cl)cc2)nc2ccccc12	1.2	1.9
COc1ccc(CNC(=O)c2nc(-c3ccc(OC)cc3)oc2C)cc1	0.97	-1.2
Cc1cc(N2CCN(c3ccccn3)CC2)n2ncnc2n1	1	1.3
COc1ccc(/C=c2/sc3nc4cc(C)c(C)cc4n3c2=O)cc1OC	1.1	0.58
COc1ccccc1NC(=O)c1cnc2scc(C)n2c1=O	1	1.1

Remaining list, next part:
SMILES	CBX7 AlphaScr	CBX7 AlphaScr z-score
CCCCN(CC)S(=O)(=O)c1ccc2[nH]c(=O)cc(C(=O)NCCc3ccc(C)cc3)c2c1	0.98	-0.71
O=C(CN1C(=O)CSc2cc(S(=O)(=O)N3CCCCCC3)ccc21)NCCC1=CCCCC1	1.1	2
COc1ccc(NC(=O)c2cnn3c2NC(c2cccc(OC)c2)CC3C(F)(F)F)cc1 (centres undefined)	1	1.2
CC(NC(=O)C1CC(c2ccc(F)cc2)=NO1)c1ccccc1 (centres undefined)	1	2
Cc1ccccc1N1C(=O)C(Oc2ccc(Cl)cc2)C1CNC1CCCC1 (centres undefined)	1.1	0.88
Cc1ccn2c(Nc3ccc(C(C)C)cc3)c(-c3ccccn3)nc2c1	0.0075*	-21*
Cc1ccc(N2CC(c3nc4ccccc4n3CCOc3ccccc3)CC2=O)c(C)c1 (centres undefined)	1.1	0.38
CCOC(=O)c1cnc2ccc(OCC)cc2c1Nc1ccc(F)cc1	0.86	-0.16
COCCCNC(=O)c1ccc(Cn2c(=O)[nH]c3ccccc3c2=O)cc1	1.2	0.44
COc1ccccc1Nc1nc(C)nc2sc3c(c12)CCCC3	1	0.91
Cc1ccc(C(=O)CSc2nccn2C)cc1	0.97	-0.37
Cc1nc(N2CCN(c3ccccc3)CC2)c2c3c(sc2n1)CCCC3	0.87	-0.17
Cc1ccc(-c2nc(NS(=O)(=O)c3ccc(Cl)cc3)sc2C)cc1	1	0.48
O=C(NCc1cccnc1)c1ccc2c(c1)N(Cc1ccc(Cl)cc1)C(=O)c1ccccc1S2=O (centres undefined)	0.98	-0.87
Cc1ccc(OCCCC(=O)Nc2sc3c(c2C(N)=O)CCCC3)cc1	1.4	4.2
Cc1ccc(F)c(NC(=O)c2c(-c3ccccc3Cl)noc2C)c1	1	0.54
CCCCN1CCCc2cc(CN(CCCN3CCOCC3)C(=O)Nc3ccc(C)c(C)c3)ccc21	0.22*	-15*
CCc1ccc(-c2nc(CSCC(=O)NCCCN3CCCC3=O)c(C)o2)cc1	1.1	0.63
O=C(NCc1ccccn1)c1ccc2c(c1)N(Cc1cccc(F)c1)C(=O)c1ccccc1S2	0.87	-3.6
Cc1ccccc1-c1nnc(SCC(=O)N2CCCCC2)o1	0.98	-0.044
CC(=O)Nc1nc(C)c(-c2csc(Nc3cc(C)ccn3)n2)s1	1	-0.00021
Cc1onc(-c2ccccc2Cl)c1C(=O)Nc1sc2c(c1C#N)CCC2	1.1	0.91
O=C(Nc1ccc2oc(-c3ccccc3)nc2c1)c1ccccc1	1	2.1
CCc1ccc(NC(=O)c2nn3c(C(F)(F)F)cc(-c4ccccc4)nc3c2Br)cc1	1	0.16
Fc1ccc(-c2csc(N3CCN(C/C=C\c4ccccc4)CC3)n2)cc1	0.98	-0.023
Cc1ccc(-c2nc3ncccc3o2)cc1N	0.99	-0.33
Cc1ccc(Nc2c(-c3ccc(N4CCOCC4)cc3)nc3ccc(Cl)cn23)cc1	1.1	0.91
Cc1oc(-c2ccc(Cl)cc2)nc1CN1CCC(C(=O)NCCCN(C)c2ccccc2)CC1	0.74	-2.2
Cc1ccc(Nc2[nH]c(=O)c3ccccc3c2C(=O)c2ccncc2)cc1	0.86	-1.8
Cc1ccc2nc(N3CCN(C(=O)C4CCCCC4)CC3)nc(-c3ccccc3)c2c1	1.5	4.6
O=C(CSc1nc2ccccc2[nH]1)Nc1cccc(O)c1	1.1	0.94
Cn1c(SCC(=O)NCc2ccccc2)nnc1-c1c[nH]c2ccccc12	1.1	1.4
CC1CCCCC1NC(=O)CN1C(=O)CSc2ccc(S(=O)(=O)N3CCOCC3)cc21 (centres undefined)	0.91	-1.1
Cc1cccc(CSc2nc3ccncc3n2CC(=O)N2CCCC2)c1	0.91	-1.2
COc1ccc(Cl)cc1NC(=O)C1c2ccccc2C(=O)N2CCc3cc(OC)c(OC)cc3C12 (centres undefined)	0.96	-0.14
C=C(C)Cn1c(CCNC(=O)c2ccc(OC)c(OC)c2)nc2ccccc21	0.92	-1.1

Retrieved by structure from the list above:
SMILES	CBX7 AlphaScr	CBX7 AlphaScr z-score
O=C(CSc1nc2ccccc2[nH]1)Nc1cccc(O)c1	1.1	0.94
Cc1ccc(Nc2[nH]c(=O)c3ccccc3c2C(=O)c2ccncc2)cc1	0.86	-1.8
Cc1ccc2nc(N3CCN(C(=O)C4CCCCC4)CC3)nc(-c3ccccc3)c2c1	1.5	4.6
Cc1ccc(Nc2c(-c3ccc(N4CCOCC4)cc3)nc3ccc(Cl)cn23)cc1	1.1	0.91
C=C(C)Cn1c(CCNC(=O)c2ccc(OC)c(OC)c2)nc2ccccc21	0.92	-1.1
Cc1ccc(-c2nc3ncccc3o2)cc1N	0.99	-0.33
Cc1oc(-c2ccc(Cl)cc2)nc1CN1CCC(C(=O)NCCCN(C)c2ccccc2)CC1	0.74	-2.2

Next part
SMILES	CBX7 AlphaScr	CBX7 AlphaScr z-score
CC1=Nc2cc(C(=O)NCCN(C)C)ccc2Sc2c(C)ccc(C)c21	0.83	-2.7
Cc1ccc2c(c1)N(CCC(=O)NCCc1ccc(Cl)cc1)C(=O)CO2	1	0.031
O=C(NCCN1CCOCC1)c1ccc2c(c1)ncn2-c1cccc(Cl)c1	1.1	0.051
COC(=O)C1CCN(C(=O)c2c(-c3ccccc3)noc2C)CC1	1	0.11
CCCNC(=O)c1nc(-c2cccc(C)c2)oc1C	0.93	-1
